High-throughput results deposited in PubChem by National Center for Advancing Translational Sciences (NCATS).
Cruzain inh noDet – qHTS Assay for Promiscuous and Specific Inhibitors of Cruzain (without detergent); AID 1476, 2009; 200,000 tested, 2.3% active; Cruzipain (Trypanosoma cruzi), P25779; purified cruzain, Z-FR-AMC fluorescence, no detergent; Potency, µM, for inactives: max response, negative = inhibition, actives largely listed as inhibitors; active = well fitted curve in the direction sought with a large enough effect; inconclusive = small, poorly fitted or top-dose-only effect, or another doubt; inactive = no such curve, though single readings can be large; an effect the other way counts as inactive or inconclusive;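 note: plate controls were enzyme without inhibitor for no effect and buffer without enzyme for full effect; nearly all actives have a fitted effect of over 40% in size; top concentration of the series not given in the record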
Target sequence (P25779 123-467 limits assumed): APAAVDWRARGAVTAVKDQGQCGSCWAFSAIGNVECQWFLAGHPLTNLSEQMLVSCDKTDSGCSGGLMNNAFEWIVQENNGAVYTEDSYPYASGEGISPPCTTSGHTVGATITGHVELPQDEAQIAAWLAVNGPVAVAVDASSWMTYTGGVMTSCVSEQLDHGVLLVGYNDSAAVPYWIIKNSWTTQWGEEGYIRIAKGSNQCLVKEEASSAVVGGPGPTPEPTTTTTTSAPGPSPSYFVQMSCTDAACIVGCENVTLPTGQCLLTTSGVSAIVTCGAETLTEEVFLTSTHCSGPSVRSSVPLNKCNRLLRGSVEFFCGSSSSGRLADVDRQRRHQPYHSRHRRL
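Purified cruzain at 1.5 nM, pre-incubated 15 min with compound at room temperature in 100 mM sodium acetate pH 5.5, 5 mM DTT, 0.00005% Triton X-100. Reaction started with 2 uM Z-FR-AMC; AMC fluorescence increase over 60 s gives rate.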
SARS PLpro yeast – qHTS of Yeast-based Assay for SARS-CoV PLP; S. cerevisiae expressing SARS-CoV PLpro, growth rescue; control for the full effect not named in the record; Potency, µM (top dose mostly 32.9 µM), for the others: at the highest dose activity, positive = growth rescue; 330,000 tested, 0.19% active; AID 485353, 2010; note: 0% is about no effect; nearly all actives have a fitted effect of over 55% in size; growth read by luminescence after 48 h
2A StopGo – High Throughput Screening for Foot and Mouth Disease Virus Antivirals | human cells with a luciferase reporter of 2A StopGo recoding; control for the full effect not named in the record | Potency, µM (doses to about 57.9 µM), for the others: at the highest dose signal change, negative = less light | 410,000 tested, 1.2% active; active = well fitted falling curve with a large enough effect; inconclusive = small, poorly fitted or top-dose-only effect; inactive = no such curve, though single readings can be large or run the other way; tested in HEK293T cells; note: % is set by controls: 0 for no effect and ±100 for the full control effect; nearly all actives have a fitted effect of over 45% in size; luciferase light after 4 h
Cruzain Triton – qHTS Assay for Promiscuous and Specific Inhibitors of Cruzain (with detergent); Cruzipain (Trypanosoma cruzi), P25779; purified cruzain, Z-FR-AMC fluorescence, 0.01% Triton; Potency, µM, inactives show max response, negative = inhibition, most hits filed as inhibitors; 200,000 tested, 0.43% active; AID 1478, 2009; active = well fitted curve in the direction sought with a large enough effect; inconclusive = small, poorly fitted or top-dose-only effect, or another doubt; inactive = no such curve, though single readings can be large; an effect the other way counts as inactive or inconclusive;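 note: plate controls were neutral wells for no effect and buffer without enzyme for full effect; nearly all actives have a fitted effect of over 40% in size; top concentration of the series not given in the record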
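Sodium acetate buffer (100 mM, pH 5.5) containing 5 mM DTT and 0.01% Triton X-100 hosted 1.5 nM cruzain and test compound for 15 min at room temperature. Cleavage of 2 uM Z-FR-AMC was then tracked by fluorescence.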
MARV entry inh – qHTS for inhibitors of binding or entry into cells for Marburg Virus; Marburg virus pseudotyped entry inhibition, cell reporter; control for the full effect not named in the record; about a third of the inactives were read at about 46 µM; Potency, µM (highest dose often 37.8 µM), without a hit: at the top dose activity change, negative = inhibition, actives largely listed as inhibitors; 300,000 tested, 1.8% active; AID 540276, 2011; active = well fitted inhibition curve with a large enough effect; inconclusive = small, poorly fitted or top-dose-only effect, or effect the other way; inactive = flat fitted curve, though single readings scatter; tested in HEK293 cells; about a fifth of its hits are not listed in these tables; note: % is set by controls: 0 for no effect and ±100 for the full control effect; luciferase read-out
Lassa entry inh – qHTS for Inhibitors of binding or entry into cells for Lassa Virus | Lassa virus pseudotype entry inhibition, cell reporter; control for the full effect not named in the record | Potency, µM (doses to about 37.9 µM), for inactives: top-dose activity change, negative = inhibition, actives largely listed as inhibitors | 300,000 tested, 1.2% active; active means well fitted inhibition curve with a large enough effect; inconclusive means small, poorly fitted or top-dose-only effect, or effect the other way; inactive means flat fitted curve, though single readings scatter; tested in HEK293 cells; note: % is set by controls: 0 for no effect and ±100 for the full control effect; nearly all actives have a fitted effect of over 50% in size; luciferase read-out
NS1 function inh – qHTS Assay for Inhibitors of Influenza NS1 Protein Function. AID 2326, 2010. 270,000 tested, 0.4% active. S. cerevisiae slowed by influenza A NS1, growth recovery by OD600. Potency, µM (series often up to 46.1 µM), without a hit: at the top dose activity, positive = more growth; note: actives are rising curves; nearly all actives have a fitted effect of over 50% in size
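Recovery from NS1-induced slow growth read by OD600 in budding yeast switched to galactose assay medium (pH 6.0, -URA) at 1:100 dilution. Compound 23 nl per well; the matching strain lacking NS1 serves as control.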
RE007 growth inh – qHTS Assay for Inhibitors of the HIV-1 protein Vpr. S. pombe RE007 Vpr strain, BacTiter-Glo ATP luminescence, 24 h; control for the full effect not named in the record. 360,000 tested, 0.21% active. Potency, µM (top dose mostly 92.2 µM), inactives show top-dose activity change, negative = less growth; active = well fitted falling curve with a large enough effect; inconclusive = small, poorly fitted or top-dose-only effect; inactive = no such curve, though single readings can be large or run the other way;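 note: % is set by controls: 0 for no effect and ±100 for the full control effect; nearly all actives have a fitted effect of over 50% in size; the assay follows cell death caused by Vpr and the record does not say whether a fall means rescue or toxicity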
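Fission yeast RE007 carrying one integrated HIV-1 vpr copy, seeded at OD 0.01 in PMG+AL medium with 23 nL pinned compound. Grown 24 h at 30 degrees; viability read by BacTiter-Glo luminescence after 5 min.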
The depositor's hits bear a star; ? = inconclusive; nt = no result given; & = joins results of further samples; [ ] = dose if it differs, or a comment. Unless noted, calls come from the whole dose curve; as a rule, active means well fitted rising curve with a large enough effect; inconclusive means small, poorly fitted or top-dose-only effect; inactive means no such curve, though single readings can be large or run the other way. Potency is the fitted concentration of half-maximal effect. Random draw from the library; any-hit rate near 4.7%.

SMILES | Cruzain inh noDet | SARS PLpro yeast | 2A StopGo | Cruzain Triton | MARV entry inh | Lassa entry inh | NS1 function inh | RE007 growth inh
COc1ccc(/C=C(\C#N)C(=O)OC2CCOC2=O)cc1 (configuration not stated) | nt | -1.2% | 6.1% | nt | 28.1%[46.1 µM] | 1.5% | -8.3% | -3.8%
COc1ccc(C2(C(=O)Nc3ccc(C(=O)N4CCOCC4)cc3)CCOCC2)cc1 | 1.6% | -4.3% | 4.7% | -3.2% | 1.6%[46.1 µM] | 2.8% | -11.1% | 3.7%
Cc1cc(C)nc(NC(=O)Nc2ccc(F)cc2F)n1 | nt | 3.8% | 32.3%[activator] | nt | nt | nt | 2.0% | -0.3%
CCOC(=O)c1ccc(NC(=S)NCCc2ccc(F)cc2)cc1 | nt | -3.0% | ? | nt | -23.9%[46.1 µM] | -4.2% | -5.0% | 10.6%
CCOC(=O)C1CCCN(C(=O)c2cc(-c3ccc(F)cc3)nc3ccccc23)C1 (configuration not stated) | nt | 0.5% | -7.7% | nt | ? | ? | nt | 14.8%
CNc1csc(C)c(C)c1=O | 9.2% | -3.4% | nt | 5.7% | -7.6% | 0.0% | -10.6% | 2.8%
O=C(CCNC(=O)c1ccccc1)Nc1cccnc1 | nt | 3.3% | -9.8% | nt | ? | 7.7% | nt | 9.3%
CC1(C)CC(=O)C=C(Nc2ccc(S(N)(=O)=O)cc2)C1 | -5.9% | 3.5% | -12.0% | -2.7% | 9.7% | nt | -1.1% | 0.4%
CCCCN(C)CC(O)Cn1cc(/C=C/C(=O)c2ccc(Br)cc2)c2ccccc21 (configuration not stated) | ? | nt | -19.1% | -16.4% | ? | ? | nt | nt
CCCCCC(=O)N/N=C/c1ccco1 | 1.5% | -9.5% | -21.0% | -0.2% | 23.0% | 4.8% | 3.3% | 24.3%
Cc1nc2cc(-c3ccc(Cl)cc3)nn2c(C)c1CCC(=O)NCc1ccco1 | ? | -1.5% | -21.3% | -4.3% | 6.7% | nt | -8.7% | -0.4%
Cc1ccc2c(c1)sc(=NC(=O)C1CC1)n2C | nt | -4.2% | 65.2%[activator] | nt | nt | nt | -5.0% | ?
CCOC(=O)c1cncc(C#CCO)c1 | nt | 0.6% | 11.8% | nt | -3.3%[46.1 µM] | 4.7% | 6.7% | -2.1%
CCC1CN(C(=O)N2CCC(C(=O)Nc3cc(C)ccc3C)CC2)c2ccccc2O1 (configuration not stated) | 4.7% | nt | ? | 0.5% | nt | 10.8%[46.1 µM] | nt | nt
CC(=O)N1CCC(N(CCN2CCOCC2)C(=S)Nc2cccc(C)c2C)CC1 | 3.3% | -4.0% | -15.6% | -0.4% | 4.7% | 11.8% | 15.1% | 11.9%
CSc1ccc(CNC(=O)C2CCC(=O)N(CCc3cccc(F)c3)C2)cc1 (configuration not stated) | nt | 1.9% | 14.6% | nt | nt | nt | -17.2% | -0.4%
O=S(=O)(Nc1ccc(N2CCCCC2)cc1)c1cccc2cccnc12 | 0.6% | ? | 4.6% | -4.3% | -6.1% | 0.5% | 28.7% | -10.2%
C/C(=N\NC(=O)c1c(Br)c(C)nn1C)c1cccc(NC(=O)C2CCC2)c1 | 11.8% | -21.5% | -7.1% | -2.5% | ? | 10.7% | -28.1% | -9.4%
O=C(N/N=C/c1cccc([N+](=O)[O-])c1)c1ccc2nc[nH]c2c1 | -3.5% | 11.1% | -15.0% | -4.1% | -1.3%[46.1 µM] | 1.5% | 4.7% | -20.2%
COc1ccc(C(CC(=O)Nc2ccc(C(C)=O)cc2)N2Cc3ccccc3C2=O)cc1 (configuration not stated) | -1.0% | nt | 0.0% | -3.9% | nt | ? | nt | nt
Cc1ccc2cc(CN(CC(C)C)S(=O)(=O)c3cccc4nonc34)c(=O)[nH]c2c1 | nt | -1.7% | -19.4% | nt | nt | nt | 19.0% | -0.9%
COc1ccc(-c2ocnc2C(=O)Nc2ccc3c(c2)CCC3)cc1 | nt | -1.9% | 11.3% | nt | 10.4%[46.1 µM] | 0.1%[46.1 µM] | 8.6% | 0.9%
Cc1ccc(NC(=O)COC(=O)c2ccccc2Cl)cc1S(=O)(=O)N(C)C | nt | -8.2% | 31.4%[activator] | nt | 0.0% | 5.2% | nt | 9.4%
CCCOc1ccc(N2C(=O)CC(SC(=NC)Nc3ccc(F)cc3)C2=O)cc1 (configuration not stated) | -11.2% | 4.5% | 7.5% | -0.7% | ? | ? | 2.1% | -21.9%
CSCCC(NC(=O)C1CCC(C)CC1)C(=O)NCCN1CCOCC1 (configuration not stated) | -19.4% | 2.4% | -18.6% | -24.2% | -16.1% | -4.9% | -0.7% | -3.3%

New compounds follow.
SMILES | Cruzain inh noDet | SARS PLpro yeast | 2A StopGo | Cruzain Triton | MARV entry inh | Lassa entry inh | NS1 function inh | RE007 growth inh
CCCNC(=O)c1csc2c1CCCCC2 | 6.9% | 3.2% | 9.7% | -0.6% | 8.3% | 8.1% | -3.3% | ?
Cc1ccccc1OCC(=O)NNC(=O)Nc1ccccc1 | nt | -0.8% | 18.8% | nt | nt | nt | 1.4% | -5.4%
CN1CCc2ccccc2CC1=O | 20.1% | -4.9% | -15.6% | 0.6% | 9.5% | 11.3% | 0.2% | 10.0%
CCOC(=O)C1CCN(C(=O)c2cc3ccc(OC)cc3[nH]2)CC1 | nt | 1.1% | 74.4%[activator] | nt | 17.8% | ? | -7.6% | -23.7%
CCS(=O)(=O)c1ccc2oc(SCC(=O)NCCC3=CCCCC3)nc2c1 | -7.9% | 4.4% | ? | 0.1% | ? | -11.7% | 4.8% | 13.7%
Cc1cc(S(=O)(=O)N2CCOCC2)ccc1NC(=O)c1ccc(F)cc1 | nt | 5.1% | ? | nt | 11.3% | 16.8% | 19.3% | 8.2%
CCOC(=O)C(N)CSC1CC(=O)N(CCc2ccccc2)C1=O (configuration not stated) | nt | -4.3% | -13.9% | nt | nt | nt | 21.9% | 0.1%
CCCCCOc1ccc(/C(C)=N/NC2=NCCN2)cc1 | nt | -1.9% | -12.5% | nt | nt | nt | -59.1% | ?
N=c1nc(SCCC(=O)O)ss1 | 1.2% | 2.0% | ? | 3.9% | ? | ? | 5.5% | 29.7%
Cc1cccc(N2CC(C)Cn3c2nc2c3c(=O)n(CC(=O)OCc3ccccc3)c(=O)n2C)c1 (configuration not stated) | 8.4% | -6.4% | -13.4% | 2.7% | -29.9% | -11.9% | ? | -2.2%
Cc1cccc2c1-c1sc(C(=O)N3CCN(c4ccc(F)cc4)CC3)cc1CO2 | 4.8% | nt | -3.0% | -4.7% | 2.0%[46.1 µM] | nt | nt | nt
Cc1cccc(N(Cc2ccccc2)C(=O)CCl)c1 | nt | -0.7% | 12.6µM* | nt | ? | -13.5% | nt | 7.2%
Cc1nc2ccccc2n1C(=O)c1ccc(Cl)cc1[N+](=O)[O-] | 3.7% | -26.9% | -6.2% | -8.7% | -18.8% | -0.8% | -3.4% | 9.3%
CCc1cccc(C)c1NC(=O)C(CC)n1nc(C)c2c(C)n(-c3ccccc3)nc2c1=O (configuration not stated) | -10.0% | nt | 11.7% | -3.2% | nt | 18.0%[46.1 µM] | nt | nt
CC(=O)Nc1ccc(C(=O)Nc2nc(-c3cc(C)n(Cc4ccccc4)c3C)cs2)cc1 | ? | -4.3% | 22.4µM* | -3.9% | 1.1% | 4.5% | ? | -5.3%
COc1cccc(Cn2nnc3c(=O)[nH]c(C4CCCN(C(=O)c5ccccc5Cl)C4)nc32)c1 (configuration not stated) | ? | -5.8% | -22.5%&-27.0% | -3.5%&-4.3% | -11.2%&-11.2%&-11.2%&-11.2% | -13.3% | 12.3% | 19.6%
COc1ccc(C(=O)COC(=O)COc2cccc3c2OC(C)(C)C3)c(OC)c1 | nt | 6.3% | -14.0% | nt | -13.2%[46.1 µM] | -1.6% | nt | -5.3%
COc1ccc(-c2cc(NCc3ccc(C)cc3)n3cnnc3n2)cc1 | 13.1% | nt | ? | -3.1% | ? | ? | nt | nt
COc1ccc(N2CCN(C(=O)c3ccc(Cn4nc(C)c([N+](=O)[O-])c4C)o3)CC2)cc1 | nt | -4.7% | -13.2% | nt | ? | 4.8% | -4.1% | 11.6%
COCCn1c(N)c(Sc2ccccc2)c(=O)[nH]c1=O | nt | 2.7% | -0.8% | nt | 1.1%[46.1 µM] | 21.0%[46.1 µM] | -5.9% | 1.3%
Cc1sc(N)c(C#N)c1C | 5.7% | 20.8% | -11.2% | 1.7% | 7.1% | -0.1% | 7.2% | -15.7%
O=C1CC(c2ccccc2)n2nc(NS(=O)(=O)c3ccccc3)nc2N1 (configuration not stated) | -17.3% | 0.1% | -0.3% | -5.0% | ? | 4.9% | 3.0% | 3.6%
Cc1ccc(S(=O)(=O)N2CCCC2CNC(=O)C(=O)NC2CCCC2)cc1 (configuration not stated) | nt | -6.5% | -1.2% | nt | -18.3%[46.1 µM] | ? | nt | -0.1%
COC(=O)CCSc1nccn1Cc1ccccc1 | -0.1% | nt | 1.2% | -2.1% | 15.2% | -3.9% | 2.0% | 10.3%
COc1ccc(-c2noc(-c3ccccc3Cl)n2)cc1OC | ? | -1.0% | nt | -2.3% | 13.4% | -27.0% | -11.3% | 14.2%
O=C(OCc1cncs1)c1ccccc1Cl | nt | -1.7% | 3.1% | nt | 26.9%[46.1 µM] | -0.8%[46.1 µM] | -1.6% | 4.6%
